# Tgondii IFNg: inhibitors of Toxoplasma gondii growth with IFN-gamma; activity change, negative = inhibition, %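 (about 20 µM by stock and volumes)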; AID 1259416; hit rate 3.8% among 69,000; Toxoplasma gondii growth in IFN-gamma-treated host cells; hits give low values; reference of the scale not given here;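 active = below -70%; inconclusive = fit judged invalid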;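 also: host cells are HeLa cells infected with Toxoplasma gondii; parasite growth read as luciferase light; one replicate is shown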
# An asterisk follows results filed as active; i = inactive; ? = inconclusive; & = joins results of further samples.
entry	molecule	Tgondii IFNg
1	CC(=O)NCCC(=O)Nc1nnc(Cc2ccccc2C)s1	-25.5
2	O=C(NCc1ccccc1)NC1(C(=O)N2CCc3ccccc3C2)CCCCC1	10.8
3	CC(C)C1c2cccn2CCN1S(=O)(=O)c1ccc2c(c1)oc(=O)n2C (stereo not given)	46.6
4	O=C(O)c1ccccc1Nc1ccccc1F	4.5
5	O=C(C[C@H]1CC[C@H]2[C@@H](COC[C@H](O)CN2CCC(F)(F)F)O1)NCC1CC1	-11.9
6	O=c1[nH]c2cc(F)ccc2c(O)c1-c1nc(-c2ccccc2Br)no1	78.3
7	COc1ccccc1NC(=O)CSCC(=O)c1c(C)[nH]c2ccccc12	65.8
8	O=C(Cc1ccc(Cl)cc1)N1CCN(S(=O)(=O)c2cc3c4c(c2)CCC(=O)N4CCC3)CC1	13.9
9	CCC(C)N(Cc1ccncc1)C(=O)c1c(F)cc(OC)cc1F (stereo not given)	3.0
10	O=c1[nH]nc(CCn2ccnc2-c2cc3c(cc2Cl)OCO3)[nH]1	-2.3
11	O=c1ccc2cc(S(=O)(=O)NCc3ccc(Br)cc3)ccc2[nH]1	2.6
12	CCS(=O)(=O)N1CC2CN(C(=O)CCc3ccccc3)C2C1 (stereo not given)	113.1
13	COc1ccc(OC)c(C(=O)c2ccc(C(=O)NCC3Cc4cccc(-c5ncccn5)c4O3)cc2)c1 (stereo not given)	-7.6
14	Cc1ccc2nc(Nc3nc4c(c(=O)[nH]3)CCCC4)nc(C)c2c1	?
15	CC1=N[C@]2(CC[C@@H]3CN(c4ncc(C)cn4)C[C@H]32)C(=O)N1CC1CC1	148.4
16	O=S(=O)(c1ccccc1C(F)(F)F)N1CCC2(CC1)Nc1cc(F)ccc1-n1cccc12	43.4
17	CCCCOc1ccc(C(=O)NCCc2sc(-c3cccc(F)c3)nc2C)cc1	-94.4*
18	COc1ccc(-n2nnc(C(C)=O)c2Nc2ccc(C(=O)N3CCCC3)cc2)cc1	-59.4
19	O=C(O)CCC(=O)N1CCC2C1CC(=O)N2c1cccnc1 (stereo not given)	-2.8
20	CSc1cccc(NC(=O)CN2C(=O)CCc3cc(S(=O)(=O)N4CCCCC4)ccc32)c1	-24.8
21	CN(C[C@H]1N[C@H](CO)[C@@H]1c1ccc(-c2cccnc2)cc1)C(=O)NC1CCCC1	-48.4
22	COCc1ncc(CN(C)Cc2csc(-c3ccccc3)n2)cn1	-1.8
23	CC1=C(C(=O)Nc2cc(Cl)ccc2C)C2(CCN(S(C)(=O)=O)CC2)OC1=O	30.9
24	CNC(=O)c1cc(=O)n(CC(=O)Nc2ccc(OC)c(OC)c2)c2ccccc12	17.7
25	CS(=O)(=O)N1CC[C@H]2OCC[C@@H](C(=O)N3CCCO3)[C@H]2C1	-13.5

# More compounds follow.
entry	molecule	Tgondii IFNg
26	N[C@@H]1CC[C@@H](NC(=O)c2ccc3c(c2)ncn3CCO)C1	1.6
27	Cc1ccc(Nc2nc(C(=O)Nc3ccc(Br)cc3)nc3ccccc23)cc1	6.0
28	CNC(=O)c1ccc(-c2nc(CN3CCN(S(=O)(=O)c4ccc(C)cc4C)CC3)c(C)o2)cc1	-65.7
29	COc1cc(CN2CCOCC2c2csc(C)n2)cc(OC)c1 (stereo not given)	8.8
30	O=C(c1ccccc1F)N1CC2(C1)[C@H](c1ccccc1)[C@@H](CO)N2CC1CCOCC1	31.9
31	COc1ccc2c3c([nH]c2c1)[C@@H](CO)N(Cc1ccncc1)CC31CCN(CC2CCOCC2)CC1	-8.8
32	O=C1C[C@H]2CC[C@@H](CN1)N2C(=O)CCN1CCCCO1	4.8
33	CSc1nc(NC2CCCC2)c([N+](=O)[O-])c(NC2CCCC2)n1	19.0&6.8
34	CCCNC(=O)N1CC2(C1)CN(C(=O)Nc1ccc(F)cc1)[C@H](CO)c1[nH]c3cc(OC)ccc3c12	117.6
35	Cc1ccc(C)c(NC(=O)C(=O)NCCc2csc(-c3cccc(F)c3)n2)c1	-101.4*
36	N#C[C@@H]1[C@H](c2ccccc2-c2cccc(F)c2)[C@@H](CO)N1C(=O)C1CC1	16.6
37	Cc1cccc(-c2nc(C)c(CCNS(=O)(=O)c3ccc(-c4ccccc4)cc3)s2)c1	-83.9*
38	COc1ccccc1C(=O)c1cc2ccc(O)cc2oc1=O	41.2
39	COc1ccc(-c2nc(NC3CC3)c3ccccc3n2)cc1	-48.0
40	O=C(c1ccc(-n2cccn2)cc1)N1CCN(c2ncccc2C(F)(F)F)CC1	-16.7
41	CCC(CC)CN1C[C@H]2OCCN(Cc3csc(C)n3)[C@H]2C1	2.6
42	Cc1cccnc1C(C)NC(=O)CSc1nc2ccccc2c(=O)[nH]1 (stereo not given)	1.6
43	COc1cccc(-c2cc(C(=O)O)no2)c1	115.5
44	Cc1nc(-c2ccc(F)cc2)sc1CCNC(=O)Cc1ccc(F)cc1	-10.9
45	Cc1cc(SCC(=O)Nc2ccccc2)nc(SCc2ccc(Cl)cc2)n1	22.9
46	CCOC(=O)CSC(=O)NC(=O)c1snnc1C	-42.1
47	Cc1[nH]cnc1-c1nccn1CC1Cc2ccccc2CN1C (stereo not given)	-0.9
48	COCCN(C)CC1COC2(CCCN(C(=O)c3ccc4nc[nH]c4c3)C2)C1 (stereo not given)	3.5
49	COc1ccccc1N1CCN(C(=O)C(C)Oc2ccnc3c(C)ccc(C)c23)CC1 (stereo not given)	6.3
50	CN(CC1Cc2ccccc2O1)C(=O)c1cn(-c2ccccc2)nn1 (stereo not given)	-43.6

# Three records drawn at random from the list so far:
entry	molecule	Tgondii IFNg
47	Cc1[nH]cnc1-c1nccn1CC1Cc2ccccc2CN1C (stereo not given)	-0.9
34	CCCNC(=O)N1CC2(C1)CN(C(=O)Nc1ccc(F)cc1)[C@H](CO)c1[nH]c3cc(OC)ccc3c12	117.6
38	COc1ccccc1C(=O)c1cc2ccc(O)cc2oc1=O	41.2

# New compounds follow.
entry	molecule	Tgondii IFNg
51	O=C1CN(c2ccc(C(=O)N3CCCN(c4ncccn4)CC3)cn2)CCN1	6.2
52	COc1ccc(OC)c(CC(=O)N2CCC(Cc3nncn3C)CC2)c1	0.0
53	CCOC(=O)C(C)Oc1cccc2c(=O)n(CC(=O)Nc3ccc4c(c3)OCCO4)ccc12 (stereo not given)	11.1
54	Cc1nc(CCNC(=O)C2CCN(C(=O)c3ccc(Br)o3)CC2)cs1	9.8
55	CO[C@@H]1CN(C)C(=O)c2ccc(NC(=O)Nc3ccccc3Cl)cc2OC[C@H](C)NC[C@H]1C	138.6
56	COc1ccc(CNC(=O)N(C)C[C@H]2OCc3ccccc3-c3c(n(C)c4ccccc34)C(=O)N([C@H](C)CO)C[C@@H]2C)cc1	-51.4
57	O=C(C[C@@H]1C=C[C@H](NC(=O)C2CCC2)[C@@H](CO)O1)NC1CCCCC1	-33.0
58	COc1cccc(NC(=O)c2cc(-c3cnc(-c4cccnc4)nc3)cn2C)c1	-6.6
59	NCc1n[nH]c(=O)n1-c1ccccc1-c1ccccc1	3.2
60	CCOc1ccc(CN2CCC(c3n[nH]c(=O)n3CC)CC2)cn1	1.9
61	Cc1ccc(CNC2=NCCNC23CCN(S(=O)(=O)c2ccc4c(c2)CCCC4)CC3)cc1	-64.8
62	Cc1cccc(C)c1NC(=O)CCN1CCCC1	13.9
63	CCC(Nc1nc(-c2cccnc2)nc2c1cnn2C)c1ccc(F)cc1 (stereo not given)	-34.6
64	CCc1ccc(-c2cc3c(=O)n(Cc4nc(-c5cccc(Cl)c5)oc4C)ccn3n2)cc1	-69.9
65	O=C(Nc1c(C(=O)O)[nH]c2ccccc12)NC1CCCCC1	7.0
66	CO[C@@H]1CCN(c2ncc(F)cn2)[C@H]1Cc1ccccc1	-18.3
67	CCOC(=O)C1CCC(CNC(=O)N2CCC3(CC2)c2cccn2-c2ccc(C)cc2N3CC)CC1 (stereo not given)	-9.5
68	CC(=O)NCC1=CCCN(CCn2cc(Cl)cn2)C1	-3.0
69	C=CCn1c(=O)c(C(=O)NCc2cccnc2)c(O)c2cc(OC)c(OC)cc21	45.6
70	COc1cc2c(cc1OC)C(c1ccnn1C)NCC2 (stereo not given)	49.7
71	O=C(NC[C@H]1OC[C@H]2CCN(C(=O)c3ccco3)C[C@H]21)C1CC1	-0.2
72	CCOC(=O)c1cc(C)nc2c1c(=O)n(Cc1nc(-c3ccccc3OCC)oc1C)c(=O)n2C	-7.9
73	Cc1ccc(CNC(=O)c2ccc(-c3nc(CN4CCN(c5ccccc5)CC4)c(C)o3)cc2)cc1	-25.4
74	CN(C)CC1(O)CCN(C(=O)c2ccc(Cn3ccnc3)o2)C1 (stereo not given)	-46.7
75	CCCCN(C)C(=O)c1cc(-c2cn(-c3nccs3)c(C)n2)n2ccccc12	19.3

# Copied from the list.
# Entry of entry 47 in Tgondii IFNg: -0.9
# Entry of entry 49 in Tgondii IFNg: 6.3
# Entry of entry 67 in Tgondii IFNg: -9.5
# Entry of entry 55 in Tgondii IFNg: 138.6

# Returning to the listing; the 3 compounds before the break are reprinted first.
entry	molecule	Tgondii IFNg
73	Cc1ccc(CNC(=O)c2ccc(-c3nc(CN4CCN(c5ccccc5)CC4)c(C)o3)cc2)cc1	-25.4
74	CN(C)CC1(O)CCN(C(=O)c2ccc(Cn3ccnc3)o2)C1 (stereo not given)	-46.7
75	CCCCN(C)C(=O)c1cc(-c2cn(-c3nccs3)c(C)n2)n2ccccc12	19.3
76	CCCOC1CCCN(C(=O)CC(=O)Nc2ccc(C)cc2C)C1 (stereo not given)	-1.4
77	Cc1ncc(C)c(N2CC[C@@H](c3ccc4ccccc4c3)[C@H](O)C2)n1	-19.2
78	COc1ccc(CN2C[C@H]3OCCN(C)[C@H]3C2)cc1	-1.3
79	COc1ccc(-c2ccccc2[C@@H]2[C@@H](CO)N(C(=O)C3CCC3)[C@H]2C#N)cc1	-20.9
80	COc1cc(C(=O)Nc2ccc(-c3nc(-c4ccc(C)cc4)co3)cc2)cc(OC)c1OC	15.6
81	CN(Cc1cccc(C(=O)Nc2cccc(F)c2F)c1)CC1CCCO1 (stereo not given)	14.7
82	COC(=O)[C@H]1C[C@@H](O)CCN1S(=O)(=O)c1ccc(F)cc1F	1.2
83	Cc1cc(CN2CCC=C(CCNS(=O)(=O)C3CC3)C2)no1	-16.5
84	CS(=O)(=O)c1cnn2cc(CN3CCCC3c3ccc(F)cc3)cnc12 (stereo not given)	5.4
85	CCn1ccnc1CN(C)c1cc(C2CCCNC2)nc(C)n1 (stereo not given)	3.1
86	C[C@@H]1C(=O)N[C@H](c2ccccc2)CC=CC[C@H](C)Oc2ccccc2C(=O)N1C (mixture of isomers)	-42.6
87	Cc1c(C(=O)NCCCN2CC(C)CC(C)C2)oc2ccc3c(c12)C(O)CC1(CCCCC1)O3 (stereo not given)	-112.0*
88	COc1ccccc1C(CN)N1CCCCC1 (stereo not given)	-18.6
89	CC(C)CS(=O)(=O)N1CCc2cc(C(=O)NC(C)C)c(N(C)C)nc2CC1	-0.3
90	CC(C(=O)N1CCOc2c(O)cc(-c3nc4ccccc4s3)cc2C1)N(C)C (stereo not given)	-12.0
91	Cc1oc(-c2ccc(C(=O)NC3CCCCCCC3)cc2)nc1CN1CCN(c2ccccc2)CC1	-68.6
92	COc1ncc(C(=O)N(C)C(C)c2ccc(F)cc2)cn1 (stereo not given)	1.6
93	COc1cc(-c2cnc3ccccc3c2)cc2c1OCCN(Cc1cnc[nH]1)C2	28.2
94	CCOc1ccc(CNC(=O)c2cc3cc(S(=O)(=O)N(C)C)ccc3n2Cc2ccncc2)cc1	-37.7
95	Cc1ccc(C)n1NC(=O)c1cccs1	20.2
96	CCCNC(=O)c1nc2c(o1)CN(Cc1cccnc1)C2	-3.9
97	CN(C)CC(=O)N1CC2(C1)[C@@H](c1ccccc1)[C@@H](CO)N2S(C)(=O)=O	24.8
98	O=C(c1ccco1)N1CCc2cc3c(cc2C1C1CCOCC1)OCO3 (stereo not given)	33.3
99	Cc1ccc(-c2noc(=O)n2CC(=O)Nc2ccccc2-c2ccccc2)cc1	-4.1
100	COc1ccc(C2(CN3CCC(NC(=O)Cc4ccccc4O)CC3)CCCCC2)cc1	-4.7

# The listing continues.
entry	molecule	Tgondii IFNg
101	Cc1cnn(Cc2nc(-c3ccc(NC(=O)c4cccc(F)c4)cc3)oc2C)c1	-75.2*
102	C[C@@H]1CCCCO[C@@H](CN(C)S(=O)(=O)c2cn(C)cn2)[C@H](C)CN([C@@H](C)CO)C(=O)c2cc(NC(=O)Nc3cccc4ccccc34)ccc2O1	i
103	CCCc1cc(C(=O)N2CCCC(Cc3ccccc3-c3cccs3)(C(N)=O)C2)no1 (stereo not given)	-9.6
104	O=C1CN(C(=O)c2ccccc2)c2ccccc2N1	-5.1
105	COc1ccc2c(c1)NC1(CCN(C(=O)Nc3ccc(C)c(C)c3)CC1)c1cccn1-2	344.8
106	Cc1cc(-n2c(SCC(=O)O)nnc2C2CC2)n(C)n1	9.4
107	COc1ccc(-c2nc(C)c(-c3ccc(SCc4cccc(C(F)(F)F)c4)nn3)s2)cc1	-3.0
108	Cn1nnc2c(NCCn3ccc4ccccc43)ncnc21	3.1
109	CCCCCC#CC(=O)Nc1nc2cc(C)c(C)cc2[nH]1	84.0
110	COc1ccc(N2CCN(CCCNC(=O)CCC3Nc4c5ccccc5nc(=S)n4C3=O)CC2)cc1 (stereo not given)	4.0
111	Cc1ccc(Nc2nc(C(=O)Nc3ccc(F)cc3C)nc3ccccc23)cc1	59.4
112	CC(C)c1cc(C2CCCN2C(=O)c2cc(C(F)(F)F)nn2C)on1 (stereo not given)	5.1
113	CN(C)CCN1Cc2ccccc2C2(CCN(C(=O)c3cnc[nH]3)CC2)C1	3.0
114	CN(Cc1cccnc1)C1CCN(C(=O)c2ccnnc2)C(C(=O)O)C1 (stereo not given)	0.6
115	COC(=O)C[C@@H]1CC[C@H]2[C@@H](COc3ccc(NC(=O)Nc4c(C)noc4C)cc3C(=O)N2C)O1	14.5
116	O=C(O)C1CC(N2CCOCC2)CCN1C(=O)c1ccccn1 (stereo not given)	1.3
117	CC(C)NC(=O)N(C)C[C@H]1Oc2ccc(NC(=O)Cc3ccccc3)cc2CC(=O)N([C@H](C)CO)C[C@@H]1C	-30.5
118	CS(=O)(=O)N1CCc2cc(NC(=O)C3CC(=O)N(Cc4ccncc4)C3)ccc21 (stereo not given)	10.4
119	Cc1noc(C)c1C(=O)N1CCCC(c2nc3ccccc3c(=O)[nH]2)C1 (stereo not given)	44.8

# Compound activity from PubChem BioAssay.

# Only part of the results is shown; rates above refer to the full screens.
